TsaE inh – inhibitors of E. coli YjeE (TsaE) | actives 0.05% (n = 71,000) | purified YjeE, fluorescence polarisation of a bound ADP probe | Potency, µM | AID 605; active = well fitted falling curve; inconclusive = weaker or top-dose-only fall, or a rising curve; inactive = flat or poorly fitted curve;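 further: top concentration of the series not given in the record; excess ADP was the control for the full effect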
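Fluorescence polarization of a BODIPY Texas Red–ADP probe (2 uM) bound to purified YjeE (10 uM) was read after 15 min room-temperature incubation with compounds. Loss of polarization marks inhibitors; ADP serves as titrated control.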
PK Bst – alters activity of Bacillus stearothermophilus pyruvate kinase. partly purified Bacillus stearothermophilus pyruvate kinase, luminescence ATP production; ribose 5-phosphate activator present at AC10. Potency, µM. actives 1.2% (n = 51,000). AID 361; in the data active means potency below about 11 µM; inconclusive means mostly about 12 µM to 25 µM; inactive means weaker than that;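 the screen sought inhibitors and activators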;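 further: potency means the concentration at half of the fitted maximal effect; scaled between full activation by ribose 5 phosphate and full inhibition by luteolin; about four in five hits inhibit and the cells do not say which; series up to 57 µM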
Numbers without * were called inactive; i = inactive; ? = inconclusive; nt = no result given. An excerpt (hit frequency here may not be typical).

The opening 4 compounds, to show the layout:
TsaE inh,PK Bst,mol
i,>57,COc1ccccc1CN1C(=O)CCC1(C)C(=O)NCc1cccnc1 (centres undefined)
i,nt,O=c1ccc2c(OCCCCc3ccccc3)c3ccoc3cc2o1
i,nt,COc1ccc(NC(=O)N2CC[C@@]3(CCCNC3)C2)cc1
i,nt,CCCCOCCCNC(=O)c1cccs1

The whole of this part, from the first entry:
TsaE inh,PK Bst,mol
i,>57,COc1ccccc1CN1C(=O)CCC1(C)C(=O)NCc1cccnc1 (centres undefined)
i,nt,O=c1ccc2c(OCCCCc3ccccc3)c3ccoc3cc2o1
i,nt,COc1ccc(NC(=O)N2CC[C@@]3(CCCNC3)C2)cc1
i,nt,CCCCOCCCNC(=O)c1cccs1
i,>57,O=S(=O)(c1ccc(Br)s1)N1CCc2ccccc2C1
i,nt,COCCNc1ncnc2ccc(-c3cccc(OC)c3)cc12
i,nt,COc1cccc(C(=O)NCC2CCCO2)c1 (centres undefined)
i,>57,CC(C)C(=O)Nc1cccc(C(=O)NCCc2ccc(S(N)(=O)=O)cc2)c1

TsaE inh,PK Bst,mol
i,nt,CC1(C)CC(=O)C(C=Nc2ccc3c(c2)OCO3)=C(O)C1
i,>57,Cc1csc(NC(=O)CN2CCCCCC2)n1
i,>57,CCOC(=O)c1ccc(NC(=O)CN(C)S(=O)(=O)c2ccc(OC)cc2)cc1
i,nt,NC(=O)CNC1CC(=O)N(CCc2ccccc2)C1=O (centres undefined)
i,>57,CCN(CC)c1ccc2oc(=O)c(C)nc2c1
i,>57,CCOCC(=O)Nc1cccc(OC)c1
i,>57,Cc1ccc(C(=O)NCc2ccco2)cc1S(=O)(=O)N1CCCCC1
i,nt,COCC(=O)Nc1cc(=O)n(C)c(=O)n1C

Reformatted: entries from further up.
Under each structure – TsaE inh	PK Bst
> CC1(C)CC(=O)C(C=Nc2ccc3c(c2)OCO3)=C(O)C1
    i	nt
> Cc1csc(NC(=O)CN2CCCCCC2)n1
    i	>57
> CCOC(=O)c1ccc(NC(=O)CN(C)S(=O)(=O)c2ccc(OC)cc2)cc1
    i	>57
> NC(=O)CNC1CC(=O)N(CCc2ccccc2)C1=O (centres undefined)
    i	nt
> CCN(CC)c1ccc2oc(=O)c(C)nc2c1
    i	>57
> CCOCC(=O)Nc1cccc(OC)c1
    i	>57

Next part.
TsaE inh,PK Bst,mol
i,nt,COc1ccc(Cc2ccc3[nH]c(=O)cc(C)c3c2)cc1S(=O)(=O)O
i,nt,COc1ccc(-c2nnc(NC(=O)c3cc(C)on3)s2)cc1
i,>57,CC(C)(C)OC(=O)N1CCC(c2c(C(=O)O)cnn2-c2ccccc2Cl)CC1
i,>57,O=C(CCN1C(=O)c2ccccc2C1=O)OCn1nnc2ccccc2c1=O
i,>57,CC1=C(C(=O)Nc2ccccc2)C(c2cccs2)n2nnnc2N1 (centres undefined)
i,nt,COc1ccccc1CN1CCCC2(CCN(C(=O)c3cccn3C)CC2)C1
i,>57,CCOC(=O)N1CCN(C(=O)CC(=O)Nc2ccc3nc4n(c(=O)c3c2)CCCCC4)CC1
i,nt,c1ccc(CCc2ccccc2-c2nc(-c3ccccn3)no2)cc1

TsaE inh,PK Bst,mol
i,nt,CCCCCOc1ccc(CN2CCOCC2)cc1Cl
i,>57,O=C(CN(Cc1ccc2c(c1)OCO2)C(=O)CNS(=O)(=O)c1ccccc1)NCc1ccco1
i,i,Cc1cccc(OCC(=O)Nc2ccc3c(c2)OCCO3)c1
i,>57,CCCOc1ccc(C(=O)NCCCn2ccnc2)cc1
i,>57,COC(=O)c1[nH]c2cccc(OC)c2c1NC(=O)CN1CCOCC1
i,>57,COc1ccc(S(=O)(=O)N2CCC(C(=O)N3CCCC3)CC2)cc1
i,>57,Cc1ccc(CC2(O)CC(C)N(C)CC2C)c(C)c1 (centres undefined)
i,>57,COC(=O)c1c(NC(=O)CSc2n[nH]c(N)n2)sc(C)c1C

TsaE inh,PK Bst,mol
i,>57,COc1ccc(Cl)cc1S(=O)(=O)N1CCCC(C(=O)NCC(N)=O)C1 (centres undefined)
i,nt,COc1ccc(S(=O)(=O)Cc2ccc(C(=O)N3CCN(C4CCCCC4)CC3)o2)cc1
i,>57,COc1cc(NC(=O)c2ccco2)c(OC)cc1NC(=O)c1cc(OC)c(OC)c(OC)c1
i,>57,CCOP(=O)(c1ccc(N(C)C)cc1)C(O)c1c(Cl)cccc1Cl (centres undefined)
i,nt,CC(C)C(NS(=O)(=O)c1cccs1)C(=O)NCc1ccc2c(c1)OCO2 (centres undefined)
i,>57,Cc1onc(-c2c(F)cccc2Cl)c1C(=O)Nc1cccc2nsnc12
i,i,Cn1c(=O)c(C(=O)Nc2ccccn2)c(O)c2ccccc21
i,>57,COc1cc(C(O)P(=O)(OC(C)C)c2ccc(N(C)C)cc2)cc(OC)c1OC (centres undefined)

TsaE inh,PK Bst,mol
i,>57,Cc1ccc(Cn2nc(C)c(NC(=O)c3cc(-c4ccc5c(c4)OCO5)on3)c2C)cc1
i,>57,COc1cccc(NC(=O)c2ccccc2-c2nc(-c3ccccc3)no2)c1
i,>57,C=CCOc1c(Cl)cc(C2NC(=O)NC(C)=C2C(=O)OC)cc1Cl (centres undefined)
i,>57,CCCCCCn1c(SCCC)nc2c1c(=O)[nH]c(=O)n2C
i,nt,N=c1c(C(=O)NCC2CCCO2)cc2c(=O)n3ccccc3nc2n1Cc1cccnc1 (centres undefined)
i,nt,COC(=O)c1ccc(C(NC(=O)OCc2ccccc2)/C(I)=C/[C@@H](C)C(=O)NCC2CC2)cc1 (some centres undefined)
i,2.21*,CS(=O)(=O)c1ccc2nc(NC(=O)c3cccs3)sc2c1
i,>57,CCN(CC)C(=O)c1sc(NC(=O)c2ccco2)c(C#N)c1C

TsaE inh,PK Bst,mol
i,>57,CCOc1ccc(-c2nc(N)ncc2-c2ccccc2)c(O)c1
i,>57,O=S(=O)(NC1CCCC1)c1cccc(S(=O)(=O)N2CCC(n3nnc4ccccc43)CC2)c1
i,>57,CC1CC(C)(C)NC(=O)O1 (centres undefined)
i,>57,Cn1c(-c2ccccc2)cc2c3no[n+]([O-])c3ccc21
i,nt,C=CCSC1=NC(N)=C(C#N)C2(CCCCC2)C1C(N)=O (centres undefined)
nt,>25.6,CCN1CCN(c2nc3c(C)cccn3c(=O)c2/C=C(\C#N)S(=O)(=O)c2ccc(C)cc2)CC1
i,>57,CC(=O)Nc1c(O)nc(SCC(=O)N2CCN(c3ccc(F)cc3)CC2)[nH]c1=O
i,>57,CC(C)OC(=O)CSc1nc2cccnc2n1C1CCCCC1

TsaE inh,PK Bst,mol
i,nt,COc1cccc(Cn2c(=O)c(-c3ccccc3)nc3cncnc32)c1
i,>57,CCOC(=O)c1sc(C)c2c1NC1(CCCCC1)NC2=O
i,nt,COc1ccc(NC(=O)c2oc3ccccc3c2NC(=O)COc2ccccc2OC)c(OC)c1
i,>57,CCOC(=O)c1ccc(-n2c(-c3ccco3)nc3ccccc3c2=O)cc1
i,>57,CCC(C)(C(=O)NC1CCCCC1)N(C(=O)c1cnccn1)c1c(C)n(C)n(-c2ccccc2)c1=O (centres undefined)
i,nt,CC(C)Cn1c(N)c(C(=O)COC(=O)c2ccc3ccccc3n2)c(=O)n(C)c1=O
i,>57,CCOC(=O)c1nnn(-c2nonc2N)c1-c1cccs1
i,nt,CC(C)Cc1nnc(NC(=O)CCN2C(=O)c3ccccc3C2=O)s1

TsaE inh,PK Bst,mol
i,>57,CCNS(=O)(=O)c1ccc(NC(=O)c2cc(C(F)(F)F)nn2C)cc1
i,>57,CCCn1nnnc1NCc1cccn1C
i,>57,O=C1CC(c2ccccc2)C(=O)N1c1cccc(O)c1 (centres undefined)
i,>57,COc1ccc(-n2c(C)cc(C(=O)CSc3nnc(-c4ccoc4C)n3C)c2C)cc1
i,nt,Cn1c(=O)c2c3c(sc2n2c(SCc4ccc5c(c4)OCO5)nnc12)COC(C)(C)C3
i,>57,COc1cc2c(C)nc3onc(-c4ccccc4)c3c2cc1OC
i,nt,CC1CCc2nn(CC(=O)NCc3ccc4c(c3)OCO4)cc2C1 (centres undefined)
i,nt,COc1ccc(-n2c(Cn3c(=O)sc4ccccc43)nnc2SCC(=O)N2CCCC2)cc1

TsaE inh,PK Bst,mol
i,>57,O=C(C1CC1)N1CCc2cc(Br)cc(S(=O)(=O)N3CCCCCC3)c21
i,nt,COC(=O)[C@@]1(Cc2ccc(OC)cc2)[C@H]2c3cc(C(=O)N(C)C)n(CCc4c[nH]c5ccc(O)cc45)c3C[C@H]2CN1C(=O)c1ccccc1
i,nt,Cc1cc(C)c(C#N)c(Nc2ccc3c(c2)OCCO3)n1
i,nt,O=C(c1csnn1)N1CCC2(CC1)CCN(c1ccncc1)CC2
i,>57,Cc1cc2c(=O)n(Cc3ccco3)c(SCC(=O)c3ccc(Cl)s3)nc2s1
i,>57,COc1cc(Br)cc2cc(C(=O)N3CCN(C(=O)c4ccco4)CC3)c(=O)oc12
i,nt,O=C(Nc1ccc2c(c1)OCO2)c1cccc(F)c1
i,nt,COC(=O)[C@@]1(Cc2ccc(F)cc2)[C@H]2c3cc(C(=O)N4CCCC4)n(Cc4ccc(C(F)(F)F)nc4)c3C[C@H]2CN1C(=O)c1ccccc1

TsaE inh,PK Bst,mol
i,nt,O=C(c1cc(-c2ccccc2)nc2ccccc12)N1CCN(c2ccccn2)CC1
i,nt,O=C(NCCn1ccc2ccccc21)c1ccc(S(=O)(=O)N2CCOCC2)cc1
i,nt,CCOc1ccc(N(CC(=O)OC)S(=O)(=O)c2ccc(OC)c(OC)c2)cc1
i,nt,O=C(c1ccco1)N1CCC2(CCN(Cc3ccncc3)CC2)CC1
i,>57,N#Cc1c(SCC(N)=O)nc(-c2ccccc2)c2c1CCCC2
i,nt,CCN1CCN(CCNC(=O)C2CCCN(Cc3nc(-c4cccc(Cl)c4)oc3C)C2)CC1 (centres undefined)
i,nt,CN(C)Cc1ccccc1-c1cc(NCc2cccs2)ncn1
i,>57,CCOC(=O)C(NC(C)=O)(N1CCc2ccccc2C1)C(F)(F)F (centres undefined)

TsaE inh,PK Bst,mol
i,>57,COC(=O)C1=C(C)NC(C)=C(C(=O)OC)C1c1ccccc1OCc1c(C)no[n+]1[O-]
i,>57,COc1ccc(S(=O)(=O)Nc2ccc(C(F)(F)F)cc2)cc1OC
i,>57,COc1ccc(S(=O)(=O)Nc2ccccc2SC)cc1C
i,nt,C=C(Br)CN(C)CC(=C)Br
i,>57,NC(=O)C1CCCNC1 (centres undefined)
i,nt,CCC(=O)N1C(C(=O)O)CSC1c1ccc(OC)cc1 (centres undefined)
i,>57,COc1ccc(C2SCCN2S(=O)(=O)c2ccccc2)cc1OC (centres undefined)
i,>57,CCn1c(C)c(C(C)=O)c(N2CCN(C(=O)c3ccco3)CC2)nc1=S

TsaE inh,PK Bst,mol
i,>57,Cc1ccc(S(=O)(=O)C2(C(=O)N3CCN(C4CCCCC4)CC3)CC2)cc1
i,>57,CCOC(=O)c1ccccc1NC(=O)CSc1nnnn1C1CCCCC1
i,nt,C[N+]1(CCC(=O)c2ccco2)CC2CCC(CC2)C1 (centres undefined)
i,>57,CCn1c(SCC(=O)Nc2nc(-c3ccccc3)cs2)nnc1-c1ccccc1
i,>57,Cc1ccnc(NC(=O)c2cc(S(=O)(=O)N3CCCCC3)ccc2Cl)c1
i,nt,CC(C)(C)Cc1nnc(NS(=O)(=O)Cc2ccccc2)s1
i,>57,CC(=O)c1ccc(-n2nncc2C(C)(C)C)cc1
i,nt,Nc1nc2n(n1)C1(CCCCC1)C1=C(CCCC1)N2

TsaE inh,PK Bst,mol
i,nt,CC1(C)CC(=O)c2cnc(NC(=O)Cc3ccc(Cl)cc3)nc2C1
i,nt,O=C(O)C1Nc2c(C(=O)N3CCOCC3)cccc2C2C=CCC12 (centres undefined)
i,5.58*,CC(C)(C)c1ccc(C(=O)Nc2cnccn2)cc1
i,nt,CCOC(=O)Nc1ccc(C(=O)Oc2ccccc2)c(O)c1
i,?,C1=Nc2c(Nc3ccccc3)ncnc2Oc2ccccc21
i,nt,COc1ccc(CC(=O)c2cc(OC)c(OC)cc2CC(=O)O)cc1OC
i,nt,Cc1cc(C)n(-c2cc(-n3nc(C)cc3C)ncn2)n1
i,nt,CCN(CC)C(=O)C1CCCc2c1[nH]c1ccc(Cl)cc21 (centres undefined)

TsaE inh,PK Bst,mol
i,nt,CCOC(=O)N1CCC(Nc2nc3ccccc3n3cnnc23)CC1
i,>57,CCOC(=O)N1CCC(NC(=O)C2CCCN(c3nc4ccccc4o3)C2)CC1 (centres undefined)
i,nt,COc1cc(CC(=O)O)ccc1O
i,nt,C=C(C)CC1N(c2cccc(OC)c2)C(=O)C2C(C(=O)O)C3C=CC21O3 (centres undefined)
i,nt,CCOC(=O)c1c(C)oc2cc(Br)c(OC)cc12
i,>57,Cc1nnc(SCC(=O)Nc2ncc(Cc3ccc(F)cc3)s2)n1N
i,nt,O=C1C(=O)c2ccccc2C(O)=C1C(CCc1ccccc1)C1=C(O)c2ccccc2C(=O)C1=O
i,nt,COc1ccc(Nc2nc(N)nc(CN3CCc4ccccc4C3)n2)cc1

TsaE inh,PK Bst,mol
i,nt,COc1ccc2c(OC)c3ccoc3nc2c1OC
nt,>25.6,CC(=O)c1c(OCC(=O)O)ccc2c(C)cc(=O)oc12
i,>57,COc1ccc(OC)c(NC(=O)CS(=O)(=O)c2ccccc2)c1
i,>57,O=C(OCC(=O)c1cccs1)c1ccc(NC(=O)c2ccco2)cc1
i,nt,O=C(NCc1ccc2c(c1)OCO2)C1CC(=O)N(CCc2ccccc2)C1 (centres undefined)
i,>57,Cc1cccc(Cc2c(C)nc3nc(SCC(=O)NCc4ccco4)nn3c2C)c1
i,nt,CCOC(=O)N1CCC(NC(=O)c2cnn3ccccc23)CC1
i,>57,CCCOc1cccc(C(=O)N(Cc2cccs2)C2CCS(=O)(=O)C2)c1 (centres undefined)
